Screens deposited in PubChem by Center for Chemical Genomics, University of Michigan.
TAR Tat displ = TAR RNA-Tat peptide displacers, HIV-1, primary screen, biochemical, FRET, FAM/TAMRA-labeled Tat; z-score (no concentration beside the values); AID 1259389, 2018; HIV-1 TAR RNA, Tat peptide displacement FRET; hits give high values; 100,000 compounds, 0.6% hits;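 further: score is relative to mean and SD of negative controls; some compounds called inactive have numbers as strong as hits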
CDC25B-CDK2 inh = primary biochemical HTRF screen for blockers of M-phase inducer phosphatase 2 binding to CDK2/cyclin A; z-score (concentration not given with the values); HTRF CDC25B-CDK2/CyclinA binding, anti-His/anti-Flag; hits give high values; 94,000 compounds, 0.72% hits; P30305+P24941;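 further: score is relative to mean and SD of negative controls; strong numbers were not always called active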
An asterisk follows results filed as active; x = not tested or not shown.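 How the source made its calls: active means z-score from 3 up in half or more of its runs; inactive means the rest.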

Results follow in this order: TAR Tat displ | CDC25B-CDK2 inh
> Cc1c(N2CCN(S(=O)(=O)c3cccc4nsnc34)CC2)c(=O)n(C)c(=O)n1C
→ 0 | x
> CCNC(=O)C1CCN(c2ncnc3onc(C)c23)CC1
→ 1.4 | x
> O=C(Nc1ccccc1)Nc1ccc(-n2ccc(C(F)(F)F)n2)cc1
→ x | -0.89
> Cc1ccc(S(=O)(=O)N/N=C/c2nccs2)cc1
→ x | -0.37
> CCN(CC)c1nc(N)c([N+](=O)[O-])c(N2CC(C)OC(C)C2)n1 (configuration not stated)
→ 1.2 | x
> CCOC(=O)c1cnn(-c2ccccc2)c1N
→ 2.4 | -1.3
> N#CSCC(=O)n1c2c(c3ccccc31)CCCC2
→ 1.6 | -3
> FC(F)(F)c1cccc(-c2nnc(SCc3ccccc3)o2)n1
→ x | -1.2
> COc1cc(CN2CCN(CC3CC=CCC3)CC2)cc(OC)c1OC (configuration not stated)
→ x | -0.97
> CN(C)CCNC(=O)c1[nH]nc2c1CCc1ccccc1-2
→ 1.3 | x
> Cc1cc(C)cc(N2C(=O)N(c3ccc(F)cc3)C3CS(=O)(=O)CC32)c1 (configuration not stated)
→ 1.1 | -1.8
> COc1cc2c(cc1OC)C(C)N(C(=O)c1cc3c(s1)-c1ccccc1OC3)CC2 (configuration not stated)
→ 4.9 | -1.2
> CCCCN(C)C(=O)Cn1c(=O)c2cccn2c2cccnc21
→ -2 | x
> Cc1c(-c2nnc(SCC(=O)Nc3ccc(Cl)cc3)o2)nnn1-c1ccc(F)cc1
→ -0.78 | x
> COc1ccc(NC(=O)CSc2nnc(Cc3cccn3C)n2C)c(OC)c1
→ -0.23 | 0.21
> COc1ccc(N2CSC3=C(C#N)C(c4ccc(O)c(OC)c4)CC(=O)N3C2)c(OC)c1 (configuration not stated)
→ -4.1 | 3.5*
> Cc1ccc(S(=O)(=O)c2nc(S(C)(=O)=O)sc2NCc2ccccc2)cc1
→ 0.32 | -0.75
> NC(CCCCC(=O)O)C(=O)O (configuration not stated)
→ x | -3.8
> Cc1ccc(C)c(Nc2nc(C)nc3c2CCC3)c1
→ 1.1 | -0.83
> O=C(CCc1ccccc1)OCc1cc(=O)n2ccsc2n1
→ -0.84 | x
> CSc1cccc(NC(=O)CCS(=O)(=O)c2ccc3c(c2)NC(=O)C(C)S3)c1 (configuration not stated)
→ 1.8 | x
> Fc1cccc(Cl)c1C1CC(c2cccs2)Nc2nnnn21 (configuration not stated)
→ x | -1.3
> Fc1ccc(CNc2ccc(Cl)nn2)cc1
→ 0.85 | -0.61
> CCOC(=O)C(NCc1ccccn1)(NC(=O)c1ccccc1Cl)C(F)(F)F (configuration not stated)
→ x | 0.57
> O=C(CC1S/C(=N\N=C\c2cccs2)NC1=O)Nc1ccccc1C(F)(F)F (configuration not stated)
→ x | -2.9
> CCc1ccc2[nH]c(C)c(CN3CCN(CC)CC3)c(=O)c2c1
→ -1.5 | 0.34
> CCc1ccc2nc(Nc3ncc4c(n3)CCCC4=O)nc(C)c2c1
→ 19 | 1.5
> CC(Cc1ccco1)NC(=O)C1CCN(S(=O)(=O)c2ccc3c(ccn3C)c2)CC1 (configuration not stated)
→ 2 | x
> CCCNC(=O)Cn1nc(C)n2c(cc3occc32)c1=O
→ 1 | -0.73
> Cc1sc(-c2ccccc2)nc1CC(=O)NNC(=O)c1cccc(OC(F)(F)F)c1
→ x | -0.08

The closing two records of the section above come first, to join the parts.
Results follow in this order: TAR Tat displ | CDC25B-CDK2 inh
> CCCNC(=O)Cn1nc(C)n2c(cc3occc32)c1=O
→ 1 | -0.73
> Cc1sc(-c2ccccc2)nc1CC(=O)NNC(=O)c1cccc(OC(F)(F)F)c1
→ x | -0.08
> CCC(C(=O)NCc1ccccn1)n1nc(C)n2c(cc3sccc32)c1=O (configuration not stated)
→ 1.2 | 0.99
> CCOc1ccccc1N(C)c1c(-c2ccc(C(C)C)cc2)c(=O)c1=O
→ 1.8 | x
> CN(CCNC(=O)c1noc2c1CSc1ccccc1-2)C1CCCCC1
→ 1.5 | 0.12
> Cc1ccccc1OCc1nn2c(COc3ccccc3)nnc2s1
→ 1.4 | 1.4
> COc1ccc(-c2noc(-c3cccnc3N3CCN(c4ccc(OC)cc4)CC3)n2)cc1
→ 1.9 | -0.32
> CCCc1nn2c(=O)cc(COc3ccc(NS(=O)(=O)c4ccc(Cl)cc4)cc3)nc2s1
→ -1.4 | -1.6
> CN(C)c1cc(NCCO)c2c3c(onc13)-c1ccccc1C2=O
→ -5.2 | -2.9
> COCCNC(=O)CCc1nc2cccnc2n1Cc1cccs1
→ -3.7 | 0.37
> CN1C(C(=O)NCC2CCCO2)=CC(c2ccco2)=NS1(=O)=O (configuration not stated)
→ 0.92 | -0.59
> C=CCN(CC=C)Cc1c(C)[nH]c2ccccc2c1=O
→ -1.4 | 1.4
> O=C(Nc1ccc(C(=O)NCC2COCCO2)cc1)C1=CSCCO1 (configuration not stated)
→ 2.6 | x
> CCN(CC)C(=O)Cn1c(CN2CCOCC2)nc2ccccc21
→ 1.2 | -2.2
> O=C(Nc1ccc(Br)cc1)c1csc2c1CCCC2
→ -0.06 | -0.14
> C=CCN(Cc1nc(-c2ccc(OC)c(OC)c2)no1)S(=O)(=O)c1ccc(F)cc1
→ 1.9 | -1.6
> CCCCn1c(O)c(C2=Nc3ccccc3SC(c3ccccc3)C2)c(=O)[nH]c1=O (configuration not stated)
→ 1.5 | -0.71
> CC(C(=O)NNS(=O)(=O)c1cccc(C(F)(F)F)c1)n1nnc(N2CCOCC2)n1 (configuration not stated)
→ x | -1.7
> COc1cccc(-c2cc(C(=O)O)c3c(-c4ccc(Br)cc4)[nH]nc3n2)c1
→ 1.9 | x
> COc1ccc(C2c3c(oc4ccccc4c3=O)C(=O)N2c2nnc(C)s2)cc1 (configuration not stated)
→ 3.3 | 0.67
> COc1cccc(-c2ccc(-c3noc(C)n3)c(OC)n2)c1
→ 2.3 | -1.5
> CN1C(=O)C(C)(C)c2cc(S(=O)(=O)N3CCN(c4ccc(Cl)cc4)CC3)ccc21
→ 5 | x
> C=CCN1C(C(=O)c2ccccc2)=C(NC(=O)Cc2ccccc2)c2ccccc2S1(=O)=O
→ 0.62 | 1
> CC(C)(C)C1CCC(C(=O)Nc2ccc3nc4n(c(=O)c3c2)CCCC4)CC1 (configuration not stated)
→ -0.45 | -0.03
> O=C(CC1Sc2ccc(C(F)(F)F)cc2NC1=O)Nc1ccc(I)cc1 (configuration not stated)
→ x | -2.3
> CC1(C)CC(=O)c2cc(C(=O)Nc3ccc(Br)cn3)c(=O)n(-c3ccccc3)c2C1
→ 3.5 | -1.2
> CCCCCSc1nc2n(n1)C(c1ccc(OC)cc1)C1=C(CC(C)(C)CC1=O)N2 (configuration not stated)
→ -1.9 | -1.1
> COc1cccc(NC(=O)CN(C2=NC3CS(=O)(=O)CC3S2)c2ccccc2F)c1 (configuration not stated)
→ 1.9 | 0.43
> CCOC(=O)c1c(C)c(C(=O)NC(C)C)c(C)n1CC
→ x | -1.5
> CC1(C)Cc2ccccc2-c2nnc(-c3ccc4ccccc4n3)n21
→ x | 0.21
> CC(C)OCCCNC(=O)C1(C)CCC(=O)N1Cc1cccs1 (configuration not stated)
→ 1.7 | x
> Cn1cc(C(=O)c2ccc(Cl)cc2)cc1/C=C(\C#N)C(=O)c1ccco1
→ x | -0.33

Record cards, from the list above:
Entry for CCOc1ccccc1N(C)c1c(-c2ccc(C(C)C)cc2)c(=O)c1=O → TAR Tat displ: 1.8; CDC25B-CDK2 inh: x
Entry for COc1ccc(C2c3c(oc4ccccc4c3=O)C(=O)N2c2nnc(C)s2)cc1 (configuration not stated) → TAR Tat displ: 3.3; CDC25B-CDK2 inh: 0.67

The listing continues:
Results follow in this order: TAR Tat displ | CDC25B-CDK2 inh
> Cc1cc(=O)[nH]c(SCc2cc(=O)n3c(C)csc3n2)n1
→ -0.15 | -0.14
> O=C(c1ccco1)N1CCN(S(=O)(=O)c2ccc(N3CCCCS3(=O)=O)cc2)CC1
→ 0.66 | x
> O=C(NCc1ccccc1Cl)c1sc(=S)n2c1[nH]c(=O)c1ccccc12
→ 3 | x
> NC(=O)C1CCN(Cc2nc(-c3cccs3)no2)CC1
→ x | -0.57
> Cc1ccc2nc(-c3ccc(OCC(=O)N/N=C/c4ccc([N+](=O)[O-])o4)cc3)cc(-c3ccccc3)c2c1
→ x | -2.5
> O=C(Nc1cccc2nsnc12)c1ccccn1
→ -0.29 | x
> O=C(Cn1cnc2ccccc21)c1ccc(Cl)cc1
→ 0.89 | -0.99
> c1cncc(-c2nc3c4ccccc4nc(NCCc4c[nH]c5ccccc45)n3n2)c1
→ 0.22 | 0.22
> CCOC(=O)C1CCN(C(=S)Nc2cccc(C)c2)CC1
→ x | -0.08
> COC(=O)c1ccc(CSc2nc3c(cnn3-c3ccc(Cl)cc3)c(=O)[nH]2)cc1
→ 1.2 | x
> Cc1cc(C)c2c(=O)cc(CSc3nnc(NC(=O)c4cccs4)s3)[nH]c2c1
→ 0.91 | x
> CC(C)Cc1nn2c(=O)cc(COC(=O)c3cccs3)nc2s1
→ 0.94 | x
> O=C(Cn1ncc2c1-c1ccccc1OC2)N1CCN(c2ccccc2F)CC1
→ -0.67 | -1.5
> CCCc1nn2c(=O)cc(COc3ccc(C)cc3C)nc2s1
→ 3.1 | -1.9
> O=S(=O)(c1ccc(Cl)cc1)c1cnc2cc3c(cc2c1N1CCCC1)OCCO3
→ 2.6 | -1.6
> Cc1nc(N2C(=O)c3oc4ccccc4c(=O)c3C2c2cccs2)sc1C (configuration not stated)
→ 2.9 | -1.9
> CCC(C(=O)N1CC(C)CC(C)C1)n1c(C(=O)OC)cc2occc21 (configuration not stated)
→ 2.1 | -0.42
> CN(C)c1nccc(Nc2ccccc2)c1C#N
→ x | -1.1
> Cc1cc(F)ccc1S(=O)(=O)NCC(c1ccc(N(C)C)cc1)N(C)C (configuration not stated)
→ -0.83 | x
> CCOCCCNC(=O)NCc1c(-n2cccc2)sc2c1CCCC2
→ 2.2 | -1.4
> CC(=O)c1ccc(OC(=O)/C=C/c2ccc(OC(F)(F)F)cc2)cc1
→ x | -0.82
> COc1ccc(-n2nnnc2CNS(=O)(=O)c2ccccc2)cc1
→ -0.37 | x
> Cc1nc2c(C)cccn2c(=O)c1NC(=O)c1ccc(Cl)cc1
→ 0.85 | x
> CCOc1ccccc1OC(=O)C1=Cc2sc(C)c(C)c2CS1
→ -0.82 | x
> Cn1c(SCc2cc(=O)n3[nH]c(-c4ccccc4)nc3n2)nc2sc3c(c2c1=O)CCCC3
→ -0.42 | x
> COC(=O)C1=C(C)Nc2nc3ccccc3n2C1c1ccccc1 (configuration not stated)
→ 0.98 | 0.06
> O=C(Nc1nnc(-c2ccco2)o1)c1ccc(F)cc1
→ -2.8 | -0.27
> Oc1ccc(Cl)cc1C=NCc1cccs1
→ x | -1.4
> Cc1cccc(Nc2ncnc3sc(C)cc23)c1
→ x | -0.26
> CCCC(=O)Nc1nn2c(CC(C)C)nnc2s1
→ 0.3 | 0.69
> O=C(CSc1nc2cc(Cl)ccc2s1)N1CCN(S(=O)(=O)c2ccccc2)C1
→ 2.1 | -0.22
> CSc1ccsc1C1=NC(C)(C)CO1
→ x | -2
> CC(Oc1cccc(Cl)c1)c1nc(-c2cccnc2)no1 (configuration not stated)
→ 0.94 | -0.59
> CCCSc1ccc(Cl)nn1
→ -0.61 | 0.52
> Cc1nn(CC(=O)NC(C)C)c(=O)c2cc3cc(F)ccc3n12
→ 0.75 | 1.7
> Cc1ccc(N2C3=C(C(=O)CC(C)(C)C3)C(c3cn(C)nc3C)C3=C2CC(C)(C)CC3=O)cc1
→ -0.72 | 0.07
> CC1Oc2ccccc2N(CC(=O)N2CCN(c3ccc(=O)n(-c4ccc(F)cc4)n3)CC2)C1=O (configuration not stated)
→ 0.72 | x
> CCCCN(C)C(=O)NC1(C(F)(F)F)Oc2ccccc2O1
→ x | -0.32
> CC(=O)Nc1ccc(S(=O)(=O)[C@H]2CS(=O)(=O)C[C@@H]2NCCc2c[nH]c3ccccc23)cc1
→ 0.41 | 0.33
> Cc1ccc(C2C3=C(CC(c4ccccc4)CC3=O)Nc3nc(C(F)(F)F)nn32)cc1 (configuration not stated)
→ -1.4 | -1.5
> CC1CCN(c2csc3ccc(F)cc3c2=O)CC1
→ -0.29 | x
> Cc1ccccc1CN=C1Nc2ccccc2NC12CCNCC2
→ -1.6 | x
> CC1=NC(C)(C)CC12C=CC(=O)c1ccccc12 (configuration not stated)
→ x | -1.5
> COc1cccc(-c2[nH]nc3nc(-c4cccc(O)c4)cc(C(=O)O)c23)c1
→ -1.9 | -0.45
> Cc1cc(C)c(S(=O)(=O)Nc2ccc3c(c2)CC(=O)N3)c(C)c1
→ 1.9 | x
> O=S(=O)(c1ccccc1F)N1CCC(Oc2ccc(-n3cnnn3)cc2)CC1
→ -1.1 | -2.5
> Cn1c(=O)oc2cc(S(=O)(=O)Nc3cccc(-c4cc5cc(Cl)ccc5[nH]4)c3)ccc21
→ -2.5 | x
> CC(CC(=O)Nc1ccc(F)c(Cl)c1)S(=O)(=O)c1ccc2c(c1)NC(=O)CS2 (configuration not stated)
→ -5.6 | x
> CCN1CCN(c2nnc(-n3cccc3CNc3ccc(Cl)cn3)s2)CC1
→ 1.3 | x
> COc1ccc(OC(=O)c2ccncc2)cc1
→ 0.55 | -0.87
> COc1nc(NC(C)(C)C)nc(Oc2ccc(=O)[nH]n2)n1
→ 3.7 | -1.1
> Fc1ccccc1NC(c1ccccc1)c1nnc(-c2ccccc2F)o1 (configuration not stated)
→ -0.48 | -0.27
> CCCC1c2cccn2CCN1C(=O)Nc1cc(OC)cc(OC)c1 (configuration not stated)
→ -1.3 | x
